Bst PK mod – alters activity of Bacillus stearothermophilus pyruvate kinase; partly purified Bacillus stearothermophilus pyruvate kinase, luminescence ATP production; ribose 5-phosphate activator present at AC10; Potency, µM; actives 1.2% (n = 51,000); in the data active means potency below about 11 µM; inconclusive means mostly about 12 µM to 25 µM; inactive means weaker than that;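 the screen sought inhibitors and activators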;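 also: potency is read from the fitted curve at half-maximal effect; scaled between full activation by ribose 5 phosphate and full inhibition by luteolin; about four in five hits inhibit and the cells do not say which; series up to 57 µM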
TsaE inh – YjeE (TsaE) inhibition, E. coli; P0AF67; purified YjeE, fluorescence polarisation of a bound ADP probe; Potency, µM; actives 0.05% (n = 71,000); AID 605; active = well fitted falling curve; inconclusive = weaker or top-dose-only fall, or a rising curve; inactive = flat or poorly fitted curve;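 also: top concentration of the series not given in the record; excess ADP was the control for the full effect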
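Purified YjeE (10 uM) with BODIPY Texas Red-labeled ADP probe (2 uM); compounds pin-transferred, 15 min at room temperature. Binding inhibition read as decreased fluorescence polarization; ADP titration as control.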
* = called active by the depositor; i = inactive; ? = inconclusive; . = no result given.

Bst PK mod	TsaE inh	SMILES
>57	i	Cn1cccc1-c1cc(C(=O)O)[nH]n1
.	i	O=[N+]([O-])c1ccc(CSCc2ccc(Cl)cc2)cc1
i	i	Cc1cc(-c2nc3ncccc3o2)ccc1N
.	i	CCN(CC)S(=O)(=O)c1ccc(Cl)c(C(=O)Nc2nnc(C)s2)c1
>57	i	Cc1cccc(NC(=O)C2CCCN2C(=O)OCC(C)C)c1C (stereo not given)
>57	i	COc1ccc2c(c1)cc(C(=O)O)n2C
>57	i	O=C(CN1CCN(c2ccc(F)cc2)CC1)OCc1ccccc1
.	i	COc1ccccc1-c1nccc(NCc2cnc(C)cn2)n1
>57	i	CCn1cnc2sc(C(=O)O)c(C)c2c1=O
>57	i	COc1cc(C)nc(N2CCCC(C(=O)Nc3cccc(Cl)c3Cl)C2)n1 (stereo not given)
>57	i	O=C(Nc1ccccc1)N(CCc1nc2ccccc2[nH]1)C1CCCC1
>57	i	ON1C(c2ccc(Cl)cc2Cl)N(O)[C@H]2CCCC[C@H]21 (stereo not given in full)

The list goes on.
Bst PK mod	TsaE inh	SMILES
>57	i	CC(SCCc1ccccn1)C(=O)O (stereo not given)
.	i	Cc1onc(-c2ccccc2Cl)c1C(=O)N1CCN(c2cccc(Cl)c2)CC1
>57	i	COc1ccc(F)cc1S(=O)(=O)N1CCN(Cc2ccc3c(c2)OCO3)CC1
>57	i	COc1ccc2[nH]c(=O)c(CN(C(=O)C3CCCO3)c3ccc(C)cc3)cc2c1 (stereo not given)
>57	i	c1ccc(Oc2cccc(NC3=NCCC3)c2)cc1
>57	i	CCn1cc(C(=O)NCc2ccccc2OC)c(=O)c2ccc(C)nc21
>57	i	CC(=O)N(C)c1nc(-c2ccc(Cl)cc2)cs1
.	i	COc1ccc(S(=O)(=O)N2CCC(C(=O)N3CCN(c4ccccc4OC)CC3)CC2)cc1
.	i	Cc1cccc(-n2ncc3c(Nc4ccc(F)cc4)ncnc32)c1
.	i	Fc1ccc(-c2nnc3sc(C4COc5ccccc5O4)nn23)cc1 (stereo not given)
>57	i	N#Cc1c(N)n(CCNC(=O)c2cccs2)c2nc3ccccc3nc12
>57	i	Cc1ccc(S(=O)(=O)N(C)c2ccc(OCC(=O)OCc3c(C)noc3C)cc2)cc1

Carrying on.
Bst PK mod	TsaE inh	SMILES
>57	i	CC(C)(C)OC(=O)N[C@@H](Cc1c[nH]c2ccccc12)c1nnc(SCC(N)=O)o1
.	i	O=C(CN(C1CCCCC1)S(=O)(=O)c1ccccc1)N1CCCC1
>57	i	CCCn1c(SCC(=O)NC)nnc1C(C)C
>57	i	CCOc1nc(-c2ccccc2O)nc2ccccc12
>57	i	Cc1cccc(Nc2nc(N)nc(CN3CCN(C)CC3)n2)c1
>57	i	CCOc1cc2[nH]c(=O)n(CCC(=O)NCCc3ccccc3)c(=O)c2cc1OCC
>57	i	O=C(COC(=O)c1ccccc1Oc1ccccc1)NC1CCS(=O)(=O)C1 (stereo not given)
>57	i	COc1ccccc1-c1nc(S(=O)(=O)c2ccc(Cl)cc2)c(N(C)C)o1
>57	i	Cc1cc(C)cc(N(C(=O)C2CCCC2)C2C=CS(=O)(=O)C2)c1 (stereo not given)
i	i	Cn1c(SCc2cccc3ccccc23)nnc1-c1ccco1
.	i	CCOC(=O)Cn1c(=O)oc2cc(S(=O)(=O)N3CCN(c4ccccn4)CC3)ccc21
>57	i	CSc1nnc(-c2ccc(O)cc2)n1C

More compounds follow.
Bst PK mod	TsaE inh	SMILES
.	i	COc1ccccc1CNc1cc(-c2ccccc2OC)ncn1
>57	i	CCc1cccc(NC(=O)Cn2cccc2)c1
>57	i	CC(C)CCSc1nc(N)c(C#N)cc1C#N
>57	i	COc1ccccc1C(=O)NCCn1cc(SCC(=O)NCc2ccco2)c2ccccc21
.	i	C=CCn1c(=O)c(C(=O)Nc2ccccc2OC)c(O)c2ccccc21
>26	.	COCCCn1cnc2c(c1=O)c1nc3ccccc3nc1n2CCc1ccccc1
>57	i	COc1nc(C#N)nc(N(C)C)n1
>57	i	Cc1ccc(-n2nc3c(c2NC(=O)c2cccs2)CSC3)cc1
.	i	CCNc1ncc2ncc(=O)n(CCOC)c2n1
?	i	CC(C)(Oc1cccc2ccccc12)C(=O)O
>57	i	Cc1nn(-c2nc3ccccc3n2Cc2ccccc2)c2c1C(=O)CC(C)(C)C2
>57	i	CCOC(=O)c1sc(=N)n(-c2ccc(OC)cc2)c1C

Looked up above.
Bst PK mod result of CCc1cccc(NC(=O)Cn2cccc2)c1 stands at >57
Bst PK mod result of COCCCn1cnc2c(c1=O)c1nc3ccccc3nc1n2CCc1ccccc1 stands at >26

Next results follow:
Bst PK mod	TsaE inh	SMILES
>26	.	Cc1ccc(N(CC(O)CN(C)C)S(=O)(=O)c2ccccc2)cc1 (stereo not given)
>57	i	CCOC(=O)c1cc(-c2ccco2)nc2c1c(C)nn2-c1ccccc1
>57	i	Cc1ccccc1NS(=O)(=O)c1cc(C(N)=O)ccc1C
>57	i	COc1ccccc1CN1CC(C(=O)N2CCN(c3ccc(F)cc3)CC2)CC1=O (stereo not given)
.	i	Cc1cccc2ccccc12
>57	i	COc1cccc(C(=O)CN2CCC(NC(=O)NC3CCCCC3)CC2)c1
>57	i	CCn1c(COc2cccc(C)c2)nnc1SCC(=O)N1CCCC1
.	i	CC(C)(C)NC[C@H](O)c1cc(O)cc(O)c1
>57	i	CCCN1CCN(C(=O)c2cn(CC(C)C)c(=O)c3cc(OC)c(OC)cc23)CC1
.	i	CC(=O)c1c(C)nc2ccc(Br)cc2c1C(=O)O
>57	i	Cc1[nH]nc2c1C(c1ccccc1F)CC(=O)N2 (stereo not given)
.	i	O=C(COc1ccccc1)NC(Cc1c[nH]c2ccccc12)C(=O)O (stereo not given)

Continued.
Bst PK mod	TsaE inh	SMILES
>57	i	CCn1cc(NC(=O)Nc2ccccc2C(=O)OC)c(C(N)=O)n1
>57	i	CCOC(=O)C1=C(C)NC(SCC(=O)Nc2cc(C)on2)=C(C#N)C1c1cccs1 (stereo not given)
>57	i	COc1ccc(OC(C)C(=O)NC2CC(C)(C)NC(C)(C)C2)cc1 (stereo not given)
i	i	Cc1cnc(C(=O)Nc2ccc3c(c2)CCC3)cn1
>57	i	COc1ccc(-n2c(SCC(=O)NCC3CCCO3)nc3n[nH]c(C)c3c2=N)cc1 (stereo not given)
>57	i	Cc1ccc(-c2nnn(CC(=O)NC3CC4CCC3C4)n2)cc1 (stereo not given)
.	i	COc1cccc(C(=O)N2CCN=C2SCc2cccnc2)c1OC
.	i	Cn1c(Cn2c(=O)sc3ccccc32)nnc1SCC(=O)NCc1ccccc1Cl
>57	i	CCCCn1c(=N)n(CC(O)COc2ccc(C)cc2)c2ccccc21 (stereo not given)
>57	i	Cc1ccc(SC(C)c2nc(-c3cccnc3)no2)cc1 (stereo not given)
.	i	OC(CCl)CCl
>57	i	CC(C)Cn1cc(C(=O)NCCCN2CCCC2=O)c2c3ccccc3n(C)c2c1=O

(further entries)
Bst PK mod	TsaE inh	SMILES
>57	i	Cn1c(=O)c2c(nc(N3CCCCCC3)n2CC(=O)c2ccccc2)n(C)c1=O
.	i	CN(C)c1cc(-c2ccccc2)nc(N)n1
>57	i	COc1cccc(N2CCN(C(=O)CCn3c(=S)[nH]c4cc5c(cc4c3=O)OCO5)CC2)c1
>57	i	COCCn1c(C)cc(C(=O)CSc2nnc3scc(-c4ccc(Cl)cc4)n23)c1C
>57	i	O=C(Cn1nnc(-c2cccc(C(F)(F)F)c2)n1)NC(=O)NCc1ccco1
>57	i	CCCCCc1nnc(NC(=O)C2CCCO2)s1 (stereo not given)
.	i	O=C(Cn1ncc2c(=O)oc3ccccc3c21)NCC1COc2ccccc2O1 (stereo not given)
.	i	COc1ccc(CSc2nc(C)cc(=O)[nH]2)cc1
i	i	COC(=O)c1cc(C(=O)OC)cc(S(=O)(=O)Nc2ccc(Cl)c(N)c2)c1
>57	i	CN(C(=O)CSc1ncccc1C(=O)O)c1ccccc1
>57	i	COc1ccc(S(=O)(=O)N2CCC(NC(=O)Nc3ccc(C)cc3)CC2)cc1
>57	i	COc1cc(C)c(Br)cc1S(=O)(=O)N1CCCC1

An excerpt from above in order of heavy-atom count, high to low:
Bst PK mod	TsaE inh	SMILES
>57	i	COc1cccc(N2CCN(C(=O)CCn3c(=S)[nH]c4cc5c(cc4c3=O)OCO5)CC2)c1
>57	i	COCCn1c(C)cc(C(=O)CSc2nnc3scc(-c4ccc(Cl)cc4)n23)c1C
.	i	O=C(Cn1ncc2c(=O)oc3ccccc3c21)NCC1COc2ccccc2O1 (stereo not given)
>57	i	COc1ccc(S(=O)(=O)N2CCC(NC(=O)Nc3ccc(C)cc3)CC2)cc1
i	i	COC(=O)c1cc(C(=O)OC)cc(S(=O)(=O)Nc2ccc(Cl)c(N)c2)c1
>57	i	CN(C(=O)CSc1ncccc1C(=O)O)c1ccccc1
>57	i	CCCCCc1nnc(NC(=O)C2CCCO2)s1 (stereo not given)

Continuation:
Bst PK mod	TsaE inh	SMILES
.	i	O=C(c1cccc(F)c1)N1CCN(C(=O)c2cc(-c3ccc(Cl)cc3Cl)on2)CC1
>57	i	Cc1nc2ccc3nc(NC(=O)c4ccc(S(=O)(=O)N5CCOCC5)cc4)sc3c2s1
i	i	Cc1cc(Br)c(S(=O)(=O)n2nnc3ccccc32)cc1C
>57	i	O=C(Nc1ncnc2sc3c(c12)CCC3)c1ccco1
>57	i	CCN(CC)C(=O)c1ccc(COc2ccccc2Br)o1
>57	i	O=S(=O)(NCC1CCCO1)c1ccc2c(c1)OCCO2 (stereo not given)
>57	i	COc1cc(C(=O)NCCC(=O)NC2CCCCCCC2)cc(OC)c1OC
>57	i	CCOc1ccc(-n2c(Cc3cc(=O)[nH]c(=O)[nH]3)nnc2SCC(N)=O)cc1
i	i	CCOC(=O)Nc1ccc2c(c1)Nc1ccccc1S2
>57	i	CC(=O)Nc1cn(C(C)=O)c(C)n1
>57	i	Cc1ccc(/C(O)=C2\C(=O)C(=O)N(CC(C)O)C2c2ccc(N(C)C)cc2)cc1 (stereo not given)
>57	i	CCOC(=O)c1c(C)[nH]c(C(=O)CSc2nnc(CC(C)c3ccccc3)o2)c1C (stereo not given)

More results follow.
Bst PK mod	TsaE inh	SMILES
.	i	CCCc1nc(N)nc2c1C(=O)CC(C)(C)C2
>57	i	CCC(=O)Nc1ccc(-c2nn3c(C)nnc3s2)cc1C
>57	i	CC1CCCCN1S(=O)(=O)c1ccc2c(c1)CCN2C(=O)CCC(=O)O (stereo not given)
>57	i	Brc1cccc(-c2nnc3n2CCCCC3)c1
i	i	O=S(=O)(O)c1nc2ccccc2n1Cc1ccc(Cl)cc1
.	i	COc1ccccc1N1C(=O)N(C(C)=O)C2C1Nc1ccccc1N2C (stereo not given)
.	i	N#CC1=C(SCc2ccccc2)NC(=O)CC1c1ccco1 (stereo not given)
>57	i	Cc1ccc(OCc2nnc(SCC(=O)Nc3ccc4c(c3)OCO4)n2C)cc1
.	i	O=C(O)CSc1ccc([N+](=O)[O-])cc1[N+](=O)[O-]
>57	i	Cc1ccc(-c2cn3cccnc3n2)cc1NC(=O)c1ccc(Br)o1
>57	i	CCOC(=O)N1CCN(C(=O)CN(c2ccc(OCc3ccccc3)cc2)S(C)(=O)=O)CC1
.	i	CCC(C)(C)OC

Other records.
Bst PK mod	TsaE inh	SMILES
>26	.	COC(=O)CCC(=O)CN
>57	i	CC(NC(=O)c1cc2ccccc2o1)C(=O)O (stereo not given)
>57	i	Cc1cc(C)n2nc(SCC(=O)c3ccccc3)nc2n1
>57	i	CCOC(=O)N1CCC(NC(=O)CN2C(=O)C(CC)Oc3ccc(C)cc32)CC1 (stereo not given)
>57	i	CCc1nnc(NC(=O)CSc2nnc(C3CCCCC3)n2-c2ccccc2)s1
>57	i	Cc1ccc(-n2c(SCC(=O)Nc3ccc4c(c3)OCCO4)nnc2-c2ccco2)cc1
>57	i	CCOC(=O)C1CCN(C(=O)COc2ccc(S(=O)(=O)NC(C)(C)C)cc2)CC1
.	i	O=C1CCCc2sccc2N1
.	i	O=C(CSc1nnc(Cc2cc(=O)[nH]c(=O)[nH]2)n1-c1ccccc1)N1CCCCC1
.	i	O=C(O)CCSc1nc2ccccc2n1CCOc1ccccc1
.	i	NCCSC[C@H](N)C(=O)O
.	i	O=C1CCCC2=C1C1(O)C(=O)c3ccccc3C1(O)O2 (stereo not given)

More compounds follow:
Bst PK mod	TsaE inh	SMILES
.	i	CCn1cc(C(=O)O)c(=O)c2ccc(Cc3ccccc3)nc21
>57	i	CCOCCCN1C(=O)CN(C2CCCCC2)C(=O)C1c1ccc(OCC)c(OC)c1 (stereo not given)
>57	i	O=C(CC12CC3CC(CC(C3)C1)C2)NCCN1CCOCC1
.	i	COc1ccc(CNc2ncncc2-c2ccccc2Cl)c(OC)c1
>57	i	COc1ccc(-c2noc(CN(C)S(=O)(=O)c3ccccc3)n2)cc1OC
>57	i	O=C(O)c1cccc(CSc2nnc(COc3ccccc3)o2)c1
>57	i	O=C(Nc1nc2n(n1)C(c1ccc(Cl)cc1)CC(c1ccc(Cl)cc1)N2)c1ccco1 (stereo not given)
>57	i	COc1ccccc1-c1ccc(=O)n(CC(=O)Nc2ccc(C(=O)N3CCCC3)cc2)n1
.	i	O=c1c(-c2ccccc2)nc2cnc(N3CCNCC3)nc2n1Cc1ccc(F)cc1
.	i	CC1(C)Cc2ccccc2C(Nn2cnnc2)=N1
.	i	CCNc1ncc2nc(CCc3ccccc3)c(=O)n(CCOC)c2n1
>57	i	CS(=O)(=O)N(Cc1ccc(F)cc1)Cc1nc2ccccc2c(=O)[nH]1
.	i	CCOC(=O)c1cc(-c2ccc(F)cc2)n(CC(=O)Nc2nccs2)c1C

Screening data from PubChem BioAssay.

Only part of the results is shown, so the mix of outcomes need not match the whole.
